Assay outcomes: PubChem BioAssay, National Center for Advancing Translational Sciences (NCATS)
TsaE inh = qHTS Assay for Inhibitors of YjeE; purified YjeE, fluorescence polarisation of a bound ADP probe; 71,000 compounds, 0.05% hits; AID 605, 2007; Potency, µM; active = well fitted falling curve; inconclusive = weaker or top-dose-only fall, or a rising curve; inactive = flat or poorly fitted curve;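 also: top concentration of the series not given in the record; excess ADP was the control for the full effect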
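Purified YjeE (10 uM) with BODIPY Texas Red-labeled ADP probe (2 uM); compounds pin-transferred, 15 min at room temperature. Binding inhibition read as decreased fluorescence polarization; ADP titration as control.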
PK Bst = Pyruvate Kinase; partly purified Bacillus stearothermophilus pyruvate kinase, luminescence ATP production; ribose 5-phosphate activator present at AC10; Potency, µM; 51,000 compounds, 1.2% hits; AID 361, 2006; in the data active means potency below about 11 µM; inconclusive means mostly about 12 µM to 25 µM; inactive means weaker than that;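 the screen sought inhibitors and activators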;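 also: potency is read from the fitted curve at half-maximal effect; scaled between full activation by ribose 5 phosphate and full inhibition by luteolin; about four in five hits inhibit and the cells do not say which; series up to 57 µM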
Starred values were filed as active, the others as inactive; i = inactive; ? = inconclusive; . = no result given.

Compound	TsaE inh	PK Bst
CC1CCCCN1C(=O)CSc1nc2ccsc2c(=O)n1Cc1ccccn1 (stereo not drawn)	i	>57
NC1=NC(=O)CC(C(=O)NCCc2ccccc2)S1 (stereo not drawn)	i	>57
COC(=O)CC1C(=O)NCCN1C(=O)NC1CCCCC1 (stereo not drawn)	i	>57
COc1cccc(C(=O)Nc2c3c(nn2-c2ccccc2C)CS(=O)C3)c1OC (stereo not drawn)	i	>57
CC(C)(C)OC(=O)N1Cc2ccccc2C[C@H]1C(=O)O	i	>57
Cc1cc(NCCCN)nc(-c2ccccc2O)n1	i	>57
Cn1c(=O)c(-c2ccccc2)nn2c3ccccc3nc12	i	i
O=C(Nc1nccs1)c1cnccn1	i	>57
Cc1c(O)c(CN2CCCC2)cc2c1oc(=O)c1ccccc12	.	i
Cc1ccc(C(=O)N2CCN(c3ccc(NC(=O)c4cccnc4)cc3)CC2)cc1	i	.
COc1ccccc1CNC(=O)CCS(=O)(=O)c1cccs1	i	>57
CCn1c(SCC(=O)OCc2ccccc2)nc2c1c(=O)n(C)c(=O)n2C	i	>57
O=C(NO)c1ccccc1O	.	>26
C=CCN(CC=C)C(=O)Cc1ccc(F)cc1	i	>57
O=C(CSc1ncccn1)NCc1ccccc1Cl	i	>57

Part of the list above in order of SMILES length, high to low:
Compound	TsaE inh	PK Bst
CCn1c(SCC(=O)OCc2ccccc2)nc2c1c(=O)n(C)c(=O)n2C	i	>57
CC1CCCCN1C(=O)CSc1nc2ccsc2c(=O)n1Cc1ccccn1 (stereo not drawn)	i	>57
O=C(CSc1ncccn1)NCc1ccccc1Cl	i	>57

Additional records.
Compound	TsaE inh	PK Bst
Cc1cc(C)c2c3c(c(-c4ccccc4)n2n1)c(=O)n(C)c(=O)n3C	i	.
COc1cccc(-c2ccc(-c3noc(-c4ccccc4F)n3)c(OC)n2)c1	i	>57
C=C(C)CN(CC)C(=O)CSc1nc2ncc(Cl)cc2[nH]1	i	>57
Cc1nnc(NC(=O)C2CCN(c3cnccn3)CC2)s1	i	>57
O=C(O)c1cc(=O)c2ccc(Cl)cc2[nH]1	i	.
COC(=O)c1cccc(S(=O)(=O)N2CCC(NC(=O)NC34CC5CC(CC(C5)C3)C4)CC2)c1	i	>57
CCOC(=O)N1CCN(S(=O)(=O)c2ccc(Br)s2)CC1	i	>57
CCOC(=O)C1CCN(C(=O)CSc2cc(=O)n(C)c3ccccc23)CC1	i	>57
O=C(OCCN1C(=O)c2ccccc2C1=O)c1cc(S(=O)(=O)N2CCOCC2)ccc1Cl	i	>57
COc1ccc2c(c1)CCc1c(C(=O)N3CC4(C)CC3CC(C)(C)C4)noc1-2 (stereo not drawn)	i	>57
FC(F)(F)Oc1ccc(Nc2nc3ccccc3o2)cc1	i	>57
CCN1C(=O)C(O)(CC(=O)c2ccc(-n3cccc3)cc2)c2ccccc21 (stereo not drawn)	i	>57
O=C(O)C1CCC(CNCc2cccnc2)CC1 (stereo not drawn)	i	>57
O=C1C2CC=CCC2C(=O)N1CC1CCCO1 (stereo not drawn)	i	>57
COc1cc(C)c(C(C)C)cc1S(=O)(=O)N1CCN(C)CC1	i	>57
COc1ccc(OC)c(C2=NOC(C(=O)Nc3cccc(C(C)=O)c3)C2)c1 (stereo not drawn)	i	>57
CCOc1ccc(NC(=O)CC2CC(C)(C)OC2=O)cc1 (stereo not drawn)	i	>57
C=CCNc1nc(N2CCCCC2)c(C#N)c2c1CN(Cc1ccccc1)CC2	.	>26
CCCOC(=O)CSC1=C(C#N)C(c2ccccc2OC)C(C#N)C(=O)N1 (stereo not drawn)	.	>26
CCOc1ccc2[nH]c(=O)c(C(c3nnnn3C3CCCCC3)N3CCN(CC)CC3)cc2c1 (stereo not drawn)	i	>57
CC(=O)Nc1cccc(N2C(=O)CC(N3CCC(C(=O)N4CCCCC4)CC3)C2=O)c1 (stereo not drawn)	i	>57
COCCCNC(=O)Cn1cc2c(n1)CCC(C)C2 (stereo not drawn)	i	.
COc1ccc(S(=O)(=O)N2CCOCC2)c(Cl)c1Cl	i	>57
CCC(C)(C)NC(=O)C(c1ccc(F)cc1)N(Cc1ccco1)C(=O)c1snc(C(N)=O)c1N (stereo not drawn)	i	>57
COC(=O)CNC(=O)Cn1cnc2sc(C)c(S(=O)(=O)N3CCC(C)CC3)c2c1=O	i	>57
O=C(CN1CCN(Cc2ccccc2)CC1)Nc1ccc(Cl)cn1	i	>57
CCOc1cc(-c2conc2N)cc(OCC)c1OCC	i	>57
Cc1nnc(NC(=O)CSc2nnc3scc(-c4ccc(C)c(C)c4)n23)s1	i	>57
CC(=O)Nc1nc(CC(C)C)cc2c1c(=O)oc1ccccc12	i	>57
Cc1cccc(C(=O)NCN2CCN(c3ccccc3C#N)CC2)c1	i	.
CS(=O)(=O)N1CCN(C(=O)c2cc(-c3ccncc3)nc3ccc(Cl)cc23)CC1	i	i
O=C(CSc1nc2ccccc2n1CC(=O)N1CCCC1)NCc1ccc2c(c1)OCO2	i	>57
O=S(NC1CCCCC1)C12CC3CC(CC(C3)C1)C2 (stereo not drawn)	i	.
O=C1c2ccccc2C(Nc2cccnc2)N1Cc1ccccc1Cl (stereo not drawn)	i	.
CCCc1cc(=O)[nH]c(SCC(=O)c2cc(C)n(CCOC)c2C)n1	i	>57
COC(=O)c1c(NC(=O)C2CC2)sc2c1CCN(C(C)=O)C2	i	.
Clc1ccccc1-c1ccc2ncnc(NCc3cccnc3)c2c1	i	.
COc1ccc2c(c1)c(C(=O)N1CCN(C)CC1)c(C)n2-c1ccccc1	i	>57
COC(=O)COc1ccc(S(=O)(=O)Nc2ccc3c(c2)OCO3)cc1	i	>57
CC1(C)[N+]([O-])=C2C(=[N+]([O-])C1(C)C)c1ccccc1/C2=N\O	i	?
COc1ccccc1CNC(=O)c1ccc(CNc2c(N3CCCC3)c(=O)c2=O)cc1	i	.
CCN(CC)CCCN1C(=O)c2oc3ccccc3c(=O)c2C1c1cccnc1 (stereo not drawn)	i	>57
O=C(Nc1ccccc1)N1CCCC2(CCN(S(=O)(=O)c3ccccc3)CC2)C1	i	.
Cc1onc(-c2ccccc2Cl)c1C(=O)NCc1ccco1	i	.
CC(=O)C1=C(O)C=C(c2ccco2)CC1c1ccco1 (stereo not drawn)	i	>57
COc1ccc(-c2cc(C(F)F)n3ncc(C(=O)N4CCSCC4)c3n2)cc1	i	>57
Cc1cccc(C(=O)NC2CC3CCCC(C2)N3C(=O)NC2CCCCC2)c1 (stereo not drawn)	i	>57
Cc1ccc2c(NC(=O)C3CC3)cccc2n1	i	>57
CC1CCN(Cc2nc3c(c(=O)n(C)c(=O)n3C)n2CCc2ccccc2)CC1	i	>57
Cc1scc(C(=O)Nc2ccon2)c1-c1ccccc1	i	>57
CS(=O)(=O)N(CC(=O)NCc1ccc2c(c1)OCO2)Cc1ccccc1	i	>57
O=C(c1ccco1)N1CCC2(CCN(Cc3ccccc3)CC2)CC1	i	.
COc1ccc(NC(=O)CSC2=NC(=O)CC(C)=N2)cc1	i	>57
COc1ccc2[nH]c(=O)c(CN(Cc3nnnn3Cc3ccco3)C3CCCCC3)cc2c1	i	.
COc1ccc(OC)c(NC(=O)C(CC(C)C)NC(=O)C2CCCCC2)c1 (stereo not drawn)	i	>57
O=C(C1CCN(S(=O)(=O)c2cccs2)CC1)N1CCCCCC1	i	>57
Cc1cccc(C)c1NC(=O)CSCCO	i	>57
O=C(NC1CCC(NC(=O)C(F)(F)C(F)F)CC1)C(F)(F)C(F)F (stereo not drawn)	i	.
COc1ccccc1-n1c(CNC(=O)c2ccccc2)nnc1SCC(=O)Nc1nnc(C)s1	i	.
c1ccc(CC2CNc3ccccc3CN2)cc1 (stereo not drawn)	i	>57

Additional entries follow.
Compound	TsaE inh	PK Bst
CCC(C)NS(=O)(=O)c1cccs1 (stereo not drawn)	i	>57
O=c1cc(-c2ccccc2O)oc2cc(O)cc(O)c12	i	.
COc1ccccc1-c1nccc(Nc2ccc(F)cc2)n1	i	.
CCOc1ccc2[nH]c(C)c(CN3CCCCC3)c(=O)c2c1	i	>57
CN(C)c1ccc(C(=C2C=CC(=[N+](C)C)C=C2)c2ccccc2)cc1	i	.
CCN(CC)C(=O)C1CCN(Cc2ccc(Br)cc2)CC1	i	>57
O=c1[nH]c(=O)n(CCO)c2nnn(Cc3ccccc3)c12	i	>57
CCCc1cc(=O)n2[nH]c(CCc3ccccc3)nc2n1	i	>57
CCN(CCCNC(=O)C1CCN(S(=O)(=O)c2c(C)[nH]c(=O)[nH]c2=O)CC1)c1cccc(C)c1	i	>57
O=C(Nc1cccc(F)c1)N1CC2(CCN(C(=O)c3ccncc3)CC2)C1	i	.
COc1ccc(S(=O)(=O)CCc2nc3ccccc3s2)cc1	i	.
CC1Cc2ccccc2N1C(=O)CSc1nnc2n1C(C)(C)Cc1ccccc1-2 (stereo not drawn)	i	>57
CCCC[C@H]1C(=O)N(c2ccccc2)N(c2ccc(O)cc2)C1=O	i	.
CN(C)C(=O)c1ccc(-c2cc(-n3ccnc3)ncn2)cc1	i	.
COc1ccc(NC(=O)Cn2nnc(C(N)=O)c2N)c(OC)c1	i	>57

The last 2 records of the part above lead into the next.
Compound	TsaE inh	PK Bst
CN(C)C(=O)c1ccc(-c2cc(-n3ccnc3)ncn2)cc1	i	.
COc1ccc(NC(=O)Cn2nnc(C(N)=O)c2N)c(OC)c1	i	>57
CCOC(=O)c1ccc2[nH]cc(C(C)=O)c(=O)c2c1	i	>57
CC(C)C(c1nnnn1C1CCCC1)N1CCN(C(=O)c2ccco2)CC1 (stereo not drawn)	i	>57
Cc1cc(NC(=O)CCOc2ccccc2)no1	i	>57
C/C(=N\O)C1(C)N(O)C(C)(C)C(c2ccc(Br)cc2)=[N+]1[O-] (stereo not drawn)	i	>57
COCCSc1ccccc1C(=O)NCCCn1ccnc1	i	>57
O=C(NCc1cccnc1)NC1CCCN1S(=O)(=O)c1ccc(Cl)cc1 (stereo not drawn)	i	>57
CC(=O)OCC(=O)[C@@]1(O)CC[C@H]2[C@@H]3CCC4=CC(=O)CC[C@]4(C)[C@H]3C(=O)C[C@@]21C	.	>11
CC(C)OCCCNc1ncnc2c1cnn2-c1ccccc1	.	8.9*
O=C1c2oc3ccc(Cl)cc3c(=O)c2C(c2cccnc2)N1Cc1ccco1 (stereo not drawn)	i	.
Cc1ccc(Nc2nc(C(=O)N3CCC(C(=O)N4CCN(C)CC4)CC3)cs2)cc1	i	>57
CN1CCN(S(=O)(=O)c2ccc(NC(=O)c3ccc(Br)s3)cc2)CC1	i	>57
COC(=O)C1=C(C)NC(=O)NC1c1cn(-c2ccccc2)nc1-c1cccs1 (stereo not drawn)	i	>57
Cc1ccc2c(c1)NCC(C(=O)NC1CCC(C)CC1)O2 (stereo not drawn)	i	.
C/C=C/Cn1c(Br)nc2c1c(=O)[nH]c(=O)n2C	i	>57
Cc1cc(C)nc(N2CCCC(C(=O)Nc3ccc4c(c3)OCCO4)C2)n1 (stereo not drawn)	i	>57
COc1ccc(C)cc1-n1nnnc1SCC(=O)c1ccc2c(c1)OCCO2	i	>57
Cc1cc(C(F)(F)F)c(C#N)c(SCC(=O)NC(C)(C)C)n1	i	>57
O=S(=O)(c1ccc(Oc2ccc(S(=O)(=O)N3CCOCC3)cc2)cc1)N1CCOCC1	i	.
NC(=O)c1ccsc1NC(=O)CSc1nc2ccccc2c(=O)n1CCCO	i	>57
CC1(C)CC(=O)C=C(Nc2ccccc2O)C1	i	>57
Cc1nc(S(=O)(=O)N2CCOCC2)c(C#N)c(C)c1Cl	i	i
CCC1Oc2ccc(C)cc2N(CC(=O)NCCC2=CCCCC2)C1=O (stereo not drawn)	i	>57
O=C(NCc1cccs1)C1CCCN(c2nc3ccccc3o2)C1 (stereo not drawn)	i	>57
Fc1ccc2[nH]c3c(N4CCN(c5ccccc5)CC4)ncnc3c2c1	i	i
CCOC(=O)c1sc(=NC(=O)c2cc(OC)c(OC)c(OC)c2)n(C)c1C	i	>57
COCC(=O)Nc1nc(-c2ccccc2)ns1	i	>57
CCn1c(CSc2nnc(-c3ccoc3C)n2C)nc2cc(S(=O)(=O)N(C)C)ccc21	i	>57
CCCCCOC(=O)Cn1c(N2CCOCC2)nc2c1c(=O)[nH]c(=O)n2C	i	>57
Cn1nc(C(=O)NCc2cccnc2)c2ccccc2c1=O	i	>57
O=C(c1ccco1)N1CCN(C(=O)C2CC(c3ccc(Cl)c(Cl)c3)=NO2)CC1 (stereo not drawn)	i	?
CC(=O)Oc1ccccc1C(=O)Nc1ncc([N+](=O)[O-])s1	i	.

Compound profiles, as listed above.
CCCCCOC(=O)Cn1c(N2CCOCC2)nc2c1c(=O)[nH]c(=O)n2C is entered as TsaE inh: i; PK Bst: >57
COCC(=O)Nc1nc(-c2ccccc2)ns1 is entered as TsaE inh: i; PK Bst: >57
O=C(c1ccco1)N1CCN(C(=O)C2CC(c3ccc(Cl)c(Cl)c3)=NO2)CC1 (stereo not drawn) is entered as TsaE inh: i; PK Bst: ?

The list is partial; count on the stated rates, not on these rows.
